Vaccinia mCherry = inhibitors of vaccinia virus infection (mCherry reporter signal); Vaccinia virus mCherry reporter infection, fluorescence; about a quarter of the inactives have no number; Potency, µM (top dose mostly 36.5 µM), for the others: at the top dose activity change, negative = inhibition, actives largely listed as inhibitors; actives 0.63% (n = 310,000); active = well fitted inhibition curve with a large enough effect; inconclusive = small, poorly fitted or top-dose-only effect; inactive = no such curve, though single readings can be large or run the other way; tested in A549 cells; also: nearly all actives have a fitted effect of over 35% in size; inactives centre near -10
VACV Venus inh = vaccinia inhibition (Venus reporter) | Vaccinia virus Venus reporter expression, fluorescence | Potency, µM (highest dose often 36.5 µM), without a hit: at the top dose activity change, negative = inhibition, hits mostly inhibitors | actives 0.46% (n = 330,000); active means well fitted inhibition curve with a large enough effect; inconclusive means small, poorly fitted or top-dose-only effect; inactive means no such curve, though single readings can be large or run the other way; tested in A549 cells; also: nearly all actives have a fitted effect of over 30% in size; inactives centre near -10
Numbers without * were called inactive; & = joins results of further samples; [ ] = dose if it differs, or a comment. % is scaled to controls: 0 for no effect and ±100 for the full control effect; potency is read from the fitted curve at half-maximal effect. Not a hit list; 0.86% or so of the library scored in one or more.

What do the screens show for `Cc1cc(C)c(C)c(SCC(=O)Nc2oc(C)c3c(C)n[nH]c(=O)c23)c1C`?
Vaccinia mCherry: -9.4%; VACV Venus inh: -17.2%

Results for COc1cccc(C(O)c2nc(-c3ccccc3OC)cs2)c1 (configuration not stated) ?
Vaccinia mCherry: -0.1%; VACV Venus inh: -7.2%

What do the screens show for `CCc1nc2sc3ccccc3c(=O)c2c(=O)n1Cc1ccc(OC)cc1`?
Vaccinia mCherry: 16.2%; VACV Venus inh: -9.4%

How did COc1ccc(CNC(=O)CCc2nc(-c3ccccc3F)no2)c(OC)c1 do in these assays?
Vaccinia mCherry: -9.4%; VACV Venus inh: -1.1%

Results for Cc1cccc(C)c1-n1nnnc1C1(C)CCC(=O)N1C1CCN(Cc2ccccc2)CC1 (configuration not stated) ?
Vaccinia mCherry: -15.7%; VACV Venus inh: -5.9%

Results for COc1ccc(NC(=O)C2=C(C)Nc3ncnn3C2c2ccc[nH]2)cc1 (configuration not stated) ?
Vaccinia mCherry: 15.2%; VACV Venus inh: 15.3%

What do the screens show for `COc1ccc(OC)c2c(C)cc(N3CCN(C(=O)c4ccc(F)cc4)CC3)nc12`?
VACV Venus inh: -22.4%

Results for Cc1ccc(-n2ncc3c2CCCC3NC(=O)CCc2cnccn2)cc1C (configuration not stated) ?
Vaccinia mCherry: -23.6%; VACV Venus inh: -13.4%

What do the screens show for `O=C1c2ccccc2C(=O)N1CCCOc1ccccc1`?
VACV Venus inh: -9.5%

What do the screens show for `Cc1nc(N2CCN(C(=O)c3cnccn3)CC2)c2c3c(sc2n1)CC(C(C)(C)C)CC3` (configuration not stated)?
Vaccinia mCherry: -12.9%; VACV Venus inh: -13.4%

Entries shown so far that contain a carbonyl joined to an NH by a bond outside any ring, in the order listed:
What do the screens show for `Cc1cc(C)c(C)c(SCC(=O)Nc2oc(C)c3c(C)n[nH]c(=O)c23)c1C`?
Vaccinia mCherry: -9.4%; VACV Venus inh: -17.2%

How did COc1ccc(CNC(=O)CCc2nc(-c3ccccc3F)no2)c(OC)c1 do in these assays?
Vaccinia mCherry: -9.4%; VACV Venus inh: -1.1%

Results for COc1ccc(NC(=O)C2=C(C)Nc3ncnn3C2c2ccc[nH]2)cc1 (configuration not stated) ?
Vaccinia mCherry: 15.2%; VACV Venus inh: 15.3%

Results for Cc1ccc(-n2ncc3c2CCCC3NC(=O)CCc2cnccn2)cc1C (configuration not stated) ?
Vaccinia mCherry: -23.6%; VACV Venus inh: -13.4%

Next section.
How did O=S(=O)(c1ccc2c(c1)OCCO2)N1CCC(n2nnc3cc(C(F)(F)F)ccc32)CC1 do in these assays?
Vaccinia mCherry: -21.5%; VACV Venus inh: -22.9%

Results for CCN(c1ccccc1)S(=O)(=O)c1cccc(C(=O)Nc2cccc(C)n2)c1 ?
Vaccinia mCherry: -8.6%; VACV Venus inh: -20.3%

How did Cc1cccc(-n2c(=O)[nH]c3c(C(N)=O)nc(CC(C)C)nc32)c1 do in these assays?
VACV Venus inh: 0.0%

How did CC(C)(C)c1ccc(C(=O)N2CC(=O)Nc3ccc(F)cc3C2c2ccc(F)cc2)cc1 (configuration not stated) do in these assays?
Vaccinia mCherry: -14.5%; VACV Venus inh: -20.4%

How did O=C(NCc1cccc(C(F)(F)F)c1)c1c[nH]c(=O)s1 do in these assays?
Vaccinia mCherry: 13.6%; VACV Venus inh: -9.1%

Results for CN(c1ccccc1)S(=O)(=O)c1cccc(NC(=O)CSc2nnc(N)s2)c1 ?
Vaccinia mCherry: inconclusive; VACV Venus inh: -18.7%

How did COc1ccc(CN(CC(O)COCc2ccccc2)S(=O)(=O)c2ccccc2Br)cc1OC (configuration not stated) do in these assays?
Vaccinia mCherry: inactive; VACV Venus inh: inconclusive

How did CCOCCCN(C(=O)c1ccco1)C(C(=O)NC1CCCC1)c1ccc(OC)cc1 (configuration not stated) do in these assays?
Vaccinia mCherry: 2.6%; VACV Venus inh: -2.6%

How did COCCNC(=S)N1CCN(C(c2ccccc2)c2ccccc2)CC1 do in these assays?
Vaccinia mCherry: -23.1%; VACV Venus inh: -23.6%

What do the screens show for `O=C(/C=C/c1ccco1)Nc1nc(-c2ccccn2)cs1`?
Vaccinia mCherry: inconclusive; VACV Venus inh: inconclusive

How did Cc1cc(N/N=C/c2ccc(O)cc2O)nc(-c2ccccc2O)n1 do in these assays?
Vaccinia mCherry: 2.82µM*; VACV Venus inh: 6.31µM*

Results for CCCc1c(C(=O)Nc2ccc(F)cc2C)cnn1-c1ccccc1 ?
Vaccinia mCherry: -22.5%; VACV Venus inh: -6.1%

What do the screens show for `CC(Sc1nc2ccccc2c(=O)n1CCc1ccc(S(N)(=O)=O)cc1)C(=O)NC(N)=O` (configuration not stated)?
Vaccinia mCherry: inactive; VACV Venus inh: -11.2%

How did COc1ccc(NC(=O)CCN2C(=O)c3ccc([N+](=O)[O-])cc3C2=O)c(OC)c1 do in these assays?
Vaccinia mCherry: -11.2%; VACV Venus inh: 2.8%

What do the screens show for `COc1cccc(/C=N/Nc2ccc(C(=O)O)cc2)c1O`?
Vaccinia mCherry: -8.6%; VACV Venus inh: -13.2%

Results for CCOC(=O)c1c(C)[nH]c(C(=O)COC(=O)c2c(CC)noc2C)c1C ?
Vaccinia mCherry: -2.4%; VACV Venus inh: -1.5%

How did COc1ccc(/C=C/C(=O)NC(=S)N2C[C@H]3C[C@H](C2)c2cccc(=O)n2C3)cc1 do in these assays?
Vaccinia mCherry: 4.7%; VACV Venus inh: -5.3%

What do the screens show for `O=C1NC(=S)SC1=C1CCCCCC1`?
Vaccinia mCherry: -12.0%[1.46 µM]; VACV Venus inh: -10.0%

What do the screens show for `Cc1noc(-c2ccccc2OCC(=O)Nc2ccccc2[N+](=O)[O-])n1`?
Vaccinia mCherry: -11.1%; VACV Venus inh: 1.0%

How did COc1cccc(-c2nc(CS(=O)(=O)CC(=O)Nc3ccccc3Cl)c(C)o2)c1 do in these assays?
Vaccinia mCherry: -0.3%; VACV Venus inh: -22.7%

Results for CC(C)CN(C(=O)COC(=O)CCc1nc2ccccc2s1)c1c(N)n(Cc2ccccc2)c(=O)[nH]c1=O ?
Vaccinia mCherry: -17.4%; VACV Venus inh: -0.7%

How did O=C(CSc1nc2ccccc2o1)Nc1ccccc1N1CCOCC1 do in these assays?
VACV Venus inh: 3.6%

Results for Cn1c2c(c(=O)n(C)c1=O)CN(Cc1ccco1)CN2 ?
VACV Venus inh: -13.0%

Results for COc1ccccc1N1CCN(C(=O)Cn2ncc3c([nH]c4ccccc43)c2=O)CC1 ?
Vaccinia mCherry: -2.2%; VACV Venus inh: -2.8%

What do the screens show for `CN(C)C(CNC(=O)c1cccc(S(=O)(=O)N2CCN(c3ccc(F)cc3)CC2)c1)c1ccccc1` (configuration not stated)?
Vaccinia mCherry: inconclusive; VACV Venus inh: inconclusive

How did NC(=O)CC[C@H](NC(=O)c1ccc(F)cc1)C(=O)OCC(=O)Nc1c(F)c(F)c(F)c(F)c1F do in these assays?
Vaccinia mCherry: inactive; VACV Venus inh: -4.3%

Results for CCOCCCNC(=O)CCc1ccc(S(=O)(=O)Nc2ccc(C)cc2)cc1 ?
Vaccinia mCherry: 8.4%; VACV Venus inh: 0.6%

Results for N#C/C(=C/c1cn(Cc2ccccc2Cl)c2ccccc12)C(=O)Nc1cccc(Cl)c1 ?
Vaccinia mCherry: -4.2%; VACV Venus inh: -6.1%

What do the screens show for `CCOC(=O)N1CCC(NC(=O)c2cnn(-c3ccc(F)cc3F)c2C2CCN(C(=O)OC(C)(C)C)CC2)CC1`?
Vaccinia mCherry: -6.7%; VACV Venus inh: -16.1%

How did Cc1cc(C(=O)Cn2nnc(-c3ccc(Cl)cc3)n2)c(C)n1CC1CCCO1 (configuration not stated) do in these assays?
Vaccinia mCherry: -8.0%; VACV Venus inh: -26.5%

What do the screens show for `O=C(Nc1nc2ccccc2[nH]1)C1CCCO1` (configuration not stated)?
Vaccinia mCherry: -2.8%; VACV Venus inh: -5.8%

Results for COc1ccc(NC(=O)CSc2nc3ccncc3[nH]2)c(OC)c1 ?
Vaccinia mCherry: -12.4%; VACV Venus inh: -6.7%

How did CCOC(=O)C1C(=O)NC2(C)CC1c1cc(OC)ccc1O2 (configuration not stated) do in these assays?
Vaccinia mCherry: -10.8%; VACV Venus inh: -5.1%

How did COc1ccc(/C=N/Nc2ccc([N+](=O)[O-])cc2)cc1Cn1cc([N+](=O)[O-])cn1 do in these assays?
Vaccinia mCherry: -26.8%; VACV Venus inh: -19.0%

Results for O=C(NC1CCCC1)C(c1ccc(F)cc1)N(C(=O)c1csnn1)C1CCCC1 (configuration not stated) ?
Vaccinia mCherry: 5.7%; VACV Venus inh: 3.3%

How did CCn1c(SCC(=O)Nc2cc(C)c(Cl)cc2OC)nnc1-c1ccco1 do in these assays?
Vaccinia mCherry: -6.2%; VACV Venus inh: -16.3%

Results for N#CCSc1ccccc1NC(=O)CN1C(=O)C(=O)N(Cc2ccccc2)C1=O ?
Vaccinia mCherry: -20.8%; VACV Venus inh: -15.8%

Results for N#Cc1ccccc1COC(=O)CCN=C1NS(=O)(=O)c2ccccc21 ?
Vaccinia mCherry: -14.1%; VACV Venus inh: -4.3%

Results for Clc1ccccc1-c1nc(-c2cccnc2)no1 ?
Vaccinia mCherry: -20.1%; VACV Venus inh: -3.2%

What do the screens show for `O=C(Cn1cnc2ccccc21)N1CCN(S(=O)(=O)c2ccccc2)CC1`?
Vaccinia mCherry: inactive; VACV Venus inh: -19.8%

Reprinted from the part before: two compounds, followed by the next part.
Results for Clc1ccccc1-c1nc(-c2cccnc2)no1 ?
Vaccinia mCherry: -20.1%; VACV Venus inh: -3.2%

What do the screens show for `O=C(Cn1cnc2ccccc21)N1CCN(S(=O)(=O)c2ccccc2)CC1`?
Vaccinia mCherry: inactive; VACV Venus inh: -19.8%

How did COc1ccc(-c2nc(CN3CCC(C(=O)NCc4ccc(C)cc4)CC3)c(C)o2)cc1OC do in these assays?
Vaccinia mCherry: -17.8%; VACV Venus inh: -3.5%

How did Cc1nn(-c2ccc(N3CCCCC3)nn2)c(C)c1CCC(=O)NCc1ccc(F)cc1 do in these assays?
Vaccinia mCherry: -8.8%; VACV Venus inh: -8.5%

How did Clc1ccccc1OCc1nnc(-c2ccccc2Br)o1 do in these assays?
Vaccinia mCherry: -15.6%; VACV Venus inh: -5.0%

What do the screens show for `Cc1ccc(Nc2nc3ccccc3c3nnc(C)n23)cc1Cl`?
Vaccinia mCherry: -8.0%; VACV Venus inh: -3.8%

How did COc1cc(OC)cc(C(=O)Oc2c(CN3CCOCC3)cc(Cl)c3cccnc23)c1 do in these assays?
Vaccinia mCherry: inconclusive; VACV Venus inh: inconclusive

What do the screens show for `O=C(Nc1ccc(S(=O)(=O)N2CCCC2)cc1)c1ccc(CN2CCc3ccccc3C2)cc1`?
Vaccinia mCherry: inconclusive; VACV Venus inh: inconclusive

What do the screens show for `CC1=C(C(=O)Nc2ccccc2C)C(c2ccc[nH]2)n2ncnc2N1` (configuration not stated)?
Vaccinia mCherry: -6.3%[7.34 µM]; VACV Venus inh: -4.2%[7.34 µM]

Results for Cc1ccc(NC(=O)NNC(=O)C2CCN(Cc3ccc(F)cc3Cl)CC2)cc1 ?
Vaccinia mCherry: inconclusive; VACV Venus inh: -19.2%

Results for CN(C/N=C(\N)N[N+](=O)[O-])S(=O)(=O)c1ccccc1 ?
Vaccinia mCherry: -2.8%; VACV Venus inh: -9.2%

What do the screens show for `Cc1nn(CCCC(=O)NCCc2ccccc2)c(C)c1[N+](=O)[O-]`?
Vaccinia mCherry: -12.5%; VACV Venus inh: -0.5%

How did COc1ccc(-c2nc3ncccn3c2Nc2ccccc2)cc1 do in these assays?
Vaccinia mCherry: inconclusive; VACV Venus inh: -3.7%

How did Cc1cccc(CN2CCN(C(=O)CCc3nnc(C4CCCCC4)o3)CC2)c1 do in these assays?
Vaccinia mCherry: -24.6%; VACV Venus inh: -16.7%

Results for CC(C)C(N)c1csc(Nc2ccc(C(=O)c3ccccc3)cc2)n1 (configuration not stated) ?
Vaccinia mCherry: -24.8%; VACV Venus inh: -27.1%

How did CN(C)CCCOc1ccc(-c2cc3nc(NCc4cccnc4)n(C)c(=O)c3s2)cn1 do in these assays?
Vaccinia mCherry: 27.3%; VACV Venus inh: -3.6%

How did CCc1nnc(NS(=O)(=O)c2ccc(NCc3ccccc3O)cc2)s1 do in these assays?
Vaccinia mCherry: -0.2%; VACV Venus inh: -7.2%

How did CCc1ccc(-n2c(=S)sc3c(=O)[nH]c(SCC(=O)NC4CCCCC4)nc32)cc1 do in these assays?
Vaccinia mCherry: 0.9%; VACV Venus inh: -18.4%

What do the screens show for `O=C1CN(C(=O)c2ccccc2)C(c2ccc(F)cc2)c2cc(Br)ccc2N1` (configuration not stated)?
Vaccinia mCherry: -25.7%&-4.6%; VACV Venus inh: -20.4%&-10.0%

What do the screens show for `CCC(/C=C1\Oc2ccc(OC)cc2N1C)=C\c1sc2ccccc2[n+]1CCCS(=O)(=O)[O-]`?
Vaccinia mCherry: 44.1%[activator]; VACV Venus inh: 108.5%[activator]

Results for O=C(NC1CCCCC1)N1CCc2ccccc21 ?
Vaccinia mCherry: -14.6%; VACV Venus inh: inconclusive

Results for Fc1ccccc1N1CCN(c2ncnc3onc(-c4cccc(Cl)c4)c23)CC1 ?
Vaccinia mCherry: -7.6%; VACV Venus inh: -4.7%

How did OCC[C@@H]1C[C@H](O)[C@@H](O)[C@]2(CCCO2)O1 do in these assays?
Vaccinia mCherry: inactive; VACV Venus inh: 2.8%

Screening results: PubChem, National Center for Advancing Translational Sciences (NCATS)
